Yeast UUG start: modulators of yeast start codon fidelity, primary screen, whole organism, S. cerevisiae, single point, plate reader; S. cerevisiae UUG-firefly luciferase reporter, luminescence/redox ratio; activity score, % at 18.7 µM; 350,000 compounds, 0.13% hits;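 active means replicate mean at a twofold rise or more, about +100% in these data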;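 further: firefly luciferase made from a UUG start codon reports start codon fidelity; reporter light over untreated wells divided by growth signal over untreated wells; some hits fall short of that in this replicate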
PABP polyA inh: PABP poly(A) RNA binding inhibitors, primary screen, biochemical, fluorescence polarization, uHTS; 290,000 compounds, 1% hits; Polyadenylate-binding protein 1 (Homo sapiens), P11940; inhibition, % at 35 µM; AID 2014, 2009;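 active means 50% or more with normal probe brightness, or confirmed in later tests; inconclusive means above 50% with abnormal brightness, or retests that disagree; inactive means below 50% or failed in later tests; about a fifth of its hits are not listed in these tables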;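 further: calls also rest on retests at 20 µM and on dose response follow-up; controls were probe without protein and protein plus probe with vehicle; some compounds called inactive have numbers as strong as hits; many hits fall short of the cut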
HIV Env fusion: inhibitors of HIV-1 Env-driven cell-cell fusion, primary screen, HeLa-JRFL effector, CEM21 target cells, luciferase. inhibition, % at 12.3 µM. 360,000 compounds, 1.1% hits;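 active means mean replicate inhibition score of at least 50 and every replicate individually at or above 50; inconclusive means only one of the two criteria met; inactive means mean below 50 and not all replicates reaching 50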;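 further: 0% = plate neutral controls and 100% = maraviroc near 300 nM; one replicate is shown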
Rce1 inhib: yeast Rce1p protease inhibitors, primary screen, biochemical, fluorescence, cell-free homogeneous | CAAX prenyl protease 2 (Saccharomyces cerevisiae (strain ATCC 204508 / S288c)), Q03530 | yeast membranes, quenched prenylated peptide cleavage fluorescence | calls only | 290,000 compounds, 0.27% hits;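 active means fall in fluorescence gain of 50% or more versus controls, with final raw signal at or below 3038400; inconclusive means same 50% fall but final raw signal above 3038400; inactive means fall in fluorescence gain under 50%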;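 further: plate controls were neutral control wells for no effect and wells lacking membranes for full effect; tested at 10 µM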
Target sequence (Q03530 whole entry, looked up): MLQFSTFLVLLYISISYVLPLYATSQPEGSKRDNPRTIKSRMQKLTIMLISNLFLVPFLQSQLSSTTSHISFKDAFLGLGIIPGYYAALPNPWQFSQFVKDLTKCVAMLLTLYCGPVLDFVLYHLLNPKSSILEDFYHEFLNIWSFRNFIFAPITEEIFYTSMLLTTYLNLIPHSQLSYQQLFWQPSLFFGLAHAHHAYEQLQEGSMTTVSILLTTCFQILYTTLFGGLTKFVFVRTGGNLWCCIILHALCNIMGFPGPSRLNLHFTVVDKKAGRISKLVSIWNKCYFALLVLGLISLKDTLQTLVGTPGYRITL
CSC inhib: cancer stem cell viability inhibitors, primary screen, luminescence | cancer stem cell-like cells viability | inhibition, % at 7.5 µM | 300,000 compounds, 1.1% hits | AID 2717, 2010;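 active means mean at 75% or more and at least half the replicates too; inconclusive means mean and replicates disagree; tested in HMLE shEcad cells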;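 further: 0% = median of negative and 100% = median of positive control wells; the first replicate is given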
MT1-MMP act inh: blockers of MT1-MMP proenzyme processing, primary screen, HT1080 RFP-PRO-GFP cells, GFP/RFP fluorescence | GFP/RFP ratio change, % at 20 µM | 360,000 compounds, 0.061% hits | AID 651647, 2012 | GFP/RFP ratio fluorescence, overnight; percent of plate control window, DMSO zero | Matrix metalloproteinase-14 (Homo sapiens), P50281;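 active means GFP/RFP ratio change of at least 30% with cell ATP level not reduced by more than half and red fluorescence within 50% of control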; further: strong numbers were not always called active
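Assay system: HT1080 cells carrying an RFP-PRO-GFP reporter | Dosing: Single dose of 20 µM compound, 1% DMSO final | Incubation: Cells overnight before dosing, compound overnight, 37 °C, 5% CO2 | Evaluation: GFP/RFP fluorescence ratio | Control set: DMSO and RFP-L50D-GFP cell wells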
eIF4H FP inh: human eIF4H binding inhibitors, primary screen, translation initiation inhibitor project, biochemical, uHTS, fluorescence polarization; eIF4H fluorescence polarization binding assay; inhibition, % at 35 µM; 290,000 compounds, 0.94% hits;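 active means 50% or more with normal probe brightness, or confirmed in later tests; inconclusive means above 50% with abnormal brightness, or retests that disagree; inactive means below 50% or failed in later tests; about a fifth of its hits are not listed in these tables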;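 further: calls also rest on retests at 20 µM and on dose response follow-up; 0% = protein and probe with vehicle and 100% = probe without protein; strong numbers were not always called active; many hits fall short of the cut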
eIF4H FP inh retest: also measured in eIF4H FP inh; calls as there; inhibition, %; compound at 20 µM; confirmation average;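 mean of two retest wells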
PABP polyA inh retest: further read-out of PABP polyA inh, marked with its call; inhibition, %; compound at 20 µM; confirmation repeats;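 mean of two retest wells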
MT1-MMP act inh RFP: further read-out of MT1-MMP act inh, marked with its call; RFP signal change, %; measured here: RFP expression control read;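 0 = vehicle wells; hits needed this value within 50% of zero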
* = called active by the depositor; i = inactive; ? = inconclusive; nt = no result given; & = joins results of further samples; ! = repeats disagree. This is a subset; the hit share may differ from the screen's.

SMILES	Yeast UUG start	PABP polyA inh	HIV Env fusion	Rce1 inhib	CSC inhib	MT1-MMP act inh	MT1-MMP act inh RFP	eIF4H FP inh	others
CCN(CC)C(=O)C(=O)c1ccn(-c2c(C)csc2C(=O)OC)c1	-11	-4	-20	i	5	3	3	0
Cc1ccccc1-c1nnc(-c2ccc(Cl)cc2)o1	-7	-1	nt	i	3	0	-1	-7
CCc1cc(C(=O)NCC(c2ccco2)N2CCCCC2)sc1C (stereo not drawn)	-5	nt	5	nt	nt	1	1	nt
Cc1ccc(CN2C(=O)[C@@H]3Cc4c([nH]c5ccccc45)C(C)(C)N3C2=O)cc1	-7	nt	?	i	65	5	-7	nt
Cc1nnc(SCC(=O)Nc2ccc3[nH]c(=O)[nH]c3c2)s1	nt	nt	6	i	-17	0	2	nt
Cc1ccc(SCc2cc(=O)[nH]c(Nc3nc(C)c4cccc(C)c4n3)n2)cc1	-1	-4	-43	i	15	-19	-18	-12
CC(C)=CC(=O)OCC(=O)Nc1ccc(SC(F)F)cc1	nt	16	1	i	-10	3	3	-3
Cc1cccc(CS(=O)(=O)Cc2ccc(C(=O)NCc3ccco3)o2)c1	nt	0	nt	i	-10	3	3	-8
Cc1cccc(CN2CCN(C3CN(Cc4ccccc4)S(=O)(=O)C3)CC2)c1 (stereo not drawn)	-17	nt	-70	nt	nt	4	1	nt
COc1ccc(/C=N\n2nnc3ccccc32)cc1	-46	1	-156	i	1	4	-1	5
COc1ccccc1C(=O)NCCC(=O)NC1CCCCCC1	-10	nt	-5	nt	-8	-3	-1	nt
O=c1nc(N/N=C/c2ccccn2)cn[nH]1	nt	5	-118	nt	82*	-3	-11	13
CC1C/C(=N\NC(=O)c2ccc(NS(=O)(=O)c3ccc(Br)cc3)cc2)CC(C)(C)C1 (stereo not drawn)	nt	-1	-12	i	-6	2	4	-12
CC1(C(=O)NS(=O)(=O)C2CC2)CCCN(C(=O)c2ccc3ccccc3c2)C1 (stereo not drawn)	-12	nt	-13	nt	nt	0	6	nt
O=C(O)CSc1nnc(-c2ccncc2)n1CCc1ccccc1	0	10	-28	i	-14	-2	0	-7
O=C(Nc1nnc(SCC(=O)N2CCCc3ccccc32)s1)c1ccc2ccccc2c1	nt	22	-86	i	16	2	-1	-8
CCc1ccc(-c2cc(C)no2)cc1S(=O)(=O)N1CCN(c2ccc(C(C)=O)cc2)CC1	-10	2	1	i	26	-12	-29	-13
Cc1cc(C)c(CN2CCCC(CNC(=O)c3ccc(F)cc3)C2)c(-n2cccn2)c1 (stereo not drawn)	nt	-6	25	i	-7	-5	0	-4
c1ccc2c(c1)oc1c(NCC3CCCO3)ncnc12 (stereo not drawn)	-1	18	-142	i	-7	3	-2	-18
CCN(CC)C(=O)CSc1nc2[nH]ncc2c(=O)[nH]1	nt	7	4	i	-1	-2	1	-2
COn1c2c(c3c4nonc4ccc31)CCCC2	-11	63*	nt	i	-21	-22	-3	26	eIF4H FP inh retest=19;PABP polyA inh retest=92*
CN(CC(=O)Nc1ccccc1C(F)(F)F)CC(=O)N1CCCCCC1	-18	nt	3	nt	5	2	0	nt
Nc1cc(Cl)ccc1N1C(=O)CCC1=O	-22	6	15	i	-5	-2	4	16
CCOc1cccc(CN2CCC(n3nccc3NC(=O)CCCc3ccccc3)CC2)c1	-7	12	nt	i	12	6	-1	8
C=Cc1ccc(C(=O)NC2CCCN(Cc3ccccc3F)C2)cc1 (stereo not drawn)	-2	26	0	i	-4	-3	-2	-4

Not a retest: an excerpt of the list.
SMILES	Yeast UUG start	PABP polyA inh	HIV Env fusion	Rce1 inhib	CSC inhib	MT1-MMP act inh	MT1-MMP act inh RFP	eIF4H FP inh	others
CCN(CC)C(=O)C(=O)c1ccn(-c2c(C)csc2C(=O)OC)c1	-11	-4	-20	i	5	3	3	0
Cc1ccccc1-c1nnc(-c2ccc(Cl)cc2)o1	-7	-1	nt	i	3	0	-1	-7
CCc1cc(C(=O)NCC(c2ccco2)N2CCCCC2)sc1C (stereo not drawn)	-5	nt	5	nt	nt	1	1	nt
Cc1ccc(CN2C(=O)[C@@H]3Cc4c([nH]c5ccccc45)C(C)(C)N3C2=O)cc1	-7	nt	?	i	65	5	-7	nt
Cc1nnc(SCC(=O)Nc2ccc3[nH]c(=O)[nH]c3c2)s1	nt	nt	6	i	-17	0	2	nt
Cc1ccc(SCc2cc(=O)[nH]c(Nc3nc(C)c4cccc(C)c4n3)n2)cc1	-1	-4	-43	i	15	-19	-18	-12
CC(C)=CC(=O)OCC(=O)Nc1ccc(SC(F)F)cc1	nt	16	1	i	-10	3	3	-3

The listing picks up, repeating the two entries before the break.
SMILES	Yeast UUG start	PABP polyA inh	HIV Env fusion	Rce1 inhib	CSC inhib	MT1-MMP act inh	MT1-MMP act inh RFP	eIF4H FP inh	others
CCOc1cccc(CN2CCC(n3nccc3NC(=O)CCCc3ccccc3)CC2)c1	-7	12	nt	i	12	6	-1	8
C=Cc1ccc(C(=O)NC2CCCN(Cc3ccccc3F)C2)cc1 (stereo not drawn)	-2	26	0	i	-4	-3	-2	-4
COc1ccc(-c2cc(C(=O)c3c(N)n(C)c(=O)n(C)c3=O)c3ccccc3n2)cc1OC	nt	39	1	i	-18	8	11	-11
Cc1ccc(NC(=O)c2cccs2)cc1S(=O)(=O)Nc1cccc(Cl)c1	nt	-6	1	i	29	1	-6	8
COc1ccc(NC(=O)NNC(=O)COc2ccc3cc(Br)ccc3c2)cc1OC	12	-3	2	i	-12	-2	0	15
CCC(C)C(CO)NCCCn1cnc(C(=O)Nc2ccc(C)c(C)c2)n1 (stereo not drawn)	5	nt	3	nt	nt	5	1	nt
CN(c1cccc(NC(=O)c2ccc(CN3CCc4ccccc4C3)cc2)c1)S(C)(=O)=O	-15	-1	15	i	-1	-1	-26	4
O=C(O)C1C2C=CC(O2)C1C(=O)NCc1ccc(Cl)cc1 (stereo not drawn)	-11	-2	-12	i	-8	7	10	3
CC(C)OC(=O)c1ccc2nc3ccccc3nc2c1	-48	2	-94	i	16	-3	-1	-10
CCOC(=O)c1sc(-c2ccc(C)cc2)c(C#N)c1C	nt	-2	-8	i	-28	-3	0	-1
CCc1nc2ccc(C(=O)NCc3ccco3)cc2nc1CC	-6	13	-4	i	-2	-3	0	-11
CCOc1cc(NC(=O)c2ccccn2)c(OCC)cc1NC(=O)c1ccc(C)cc1	-3	0	4	i	-22	4	5	-3
O=C(Nc1ccccc1-c1ccccc1)c1ccc(Cl)c([N+](=O)[O-])c1	nt	-11	?	i	1	-2	-2	7
O=C1C2CC=CCC2C(=O)N1Cc1ccccc1 (stereo not drawn)	-20	6	nt	i	-7	-1	6	-15
Cc1cc(=O)[nH]c(N/N=C/c2ccc(N(C)C)cc2)n1	nt	-1	-12	i	-6	0	0	-3
Cc1ccc(CNC(=O)CCNS(=O)(=O)c2cccc3nonc23)cc1	-9	-4	nt	i	5	3	6	-4
COc1ccc(-c2nnc3ccc(SCC(=O)N4CCCC4)nn23)cc1	-19	7	0	i	-1	1	2	-4
Cn1c(=O)c2c(ncn2CC(=O)N2CCN(S(=O)(=O)c3ccc(F)cc3)CC2)n(C)c1=O	-8	nt	6	nt	nt	0	3	nt
Cc1nc2ccccn2c1C(=O)/C=C/c1cccc([N+](=O)[O-])c1	nt	8	11	i	88*	5	-21	-9
CCOC(=O)C1CCN(S(=O)(=O)CCNC(=O)c2ccc(F)cc2)CC1	-5	nt	-6	i	-9	3	2	nt
COc1ccccc1CN1CC(C(=O)NCc2cc(F)ccc2C)CCC1=O (stereo not drawn)	-1	-1	-22	i	nt	4	7	4
Cc1ccnc(SCC(=O)Nc2sccc2C#N)n1	-25	23	10	i	1	1	2	10
Cc1c(Cl)cnc(NC(=O)COC(=O)c2cc3c(s2)CCC(C)C3)c1Cl (stereo not drawn)	nt	3	0	i	-1	1	4	14
O=S(=O)(c1ccc2nnn(O)c2c1)N1CCOCC1	-5	nt	nt	nt	-20	-2	0	nt
CCSc1nc(-c2ccccc2)nc2c1CCCC2	-11	-1	9	i	21	2	1	-5
O=[N+]([O-])c1cccc(/C=C/c2nc(C=Nc3ccccc3)c(O)o2)c1	-20	20	nt	i	1	-78	-3	3
CCS(=O)(=O)N1CCc2cc(OC)c(OC)cc2C1	nt	4	-11	i	-3	4	6	-4

(cont.)
SMILES	Yeast UUG start	PABP polyA inh	HIV Env fusion	Rce1 inhib	CSC inhib	MT1-MMP act inh	MT1-MMP act inh RFP	eIF4H FP inh	others
O=C(c1ccccc1)[C@@H]1[C@@H]2C(=O)N(c3ccc(F)cc3)C(=O)[C@@H]2C2CCCN21 (stereo partly drawn)	nt	49	-2	i	-9	-26	4	60	eIF4H FP inh retest=17;PABP polyA inh retest=20
Cc1cc(C)c(S(=O)(=O)c2ccccc2C)c(N(C)C)n1	-5	-2	nt	i	nt	12	3	-5
Cc1nc(C(F)(F)F)ccc1C(=O)NCC(O)c1ccccc1 (stereo not drawn)	-25	-7	-8	i	nt	-6	0	2
CN1CCC(N(C)C(=S)NCCc2ccccc2)CC1	nt	-1	-5	i	2	-2	0	5
Cc1ccc(S(C)(=O)=O)cc1C(=O)OCC(=O)N(Cc1ccccc1)Cc1ccccc1	-7	nt	nt	nt	-18	-2	-3	nt
CCOC(=O)C1(CCOc2ccccc2)CCN(CCCn2cccn2)CC1	nt	-7	9	i	-17	2	0	4
Cc1nn(-c2ccccc2)c(Cl)c1/C=C/C(=O)c1ccc(O)cc1	nt	-23	-13	i	43	-7	-19	-5
O=C(NCc1ccco1)c1ccc2[nH]c(=O)c(=O)[nH]c2c1	-2	2	-17	i	-3	0	2	24
CC1(C)CC(=O)C2=C(C1)NC(=O)NC2c1ccccc1Cl (stereo not drawn)	-5	nt	-6	i	4	1	1	nt
O=S(=O)(CCNCCc1ccccc1)NC1CCCCC1	-9	nt	13	nt	nt	3	3	nt
CC(=O)Nc1ccc(NC(=O)c2cccc(S(=O)(=O)N(C)C3CCCCC3)c2)cc1	-6	nt	nt	nt	12	2	0	nt
CCS(=O)(=O)c1ccc2oc(Nc3ccccc3Cl)nc2c1	-18	0	-50	i	28	1	2	-3
C/C(CC(=O)Nc1ccc(N(C)C)cc1)=N\NC(=O)Cc1csc(N)n1	-16	9	-22	i	-15	2	2	1
CCN(CC)c1ccc(NC(=O)CN2C(=O)CSc3ncccc32)c(C)c1	-10	-2	?	i	5	-3	-26	-8
c1ccc(CNc2ncnc3ccccc23)cc1	-14&-18	-2&-2	106*!	i	0&6	-4&-4	-20&-26	9&-12
CCOC(=O)c1ccc(NC(=O)c2nc[nH]c2C(=O)N[C@@H](Cc2ccccc2)C(=O)OC(C)(C)C)cc1	-11	7	8	i	2	-10	-12	-4
CSc1ccc(CCNC(=O)Cn2ncc3c([nH]c4ccccc43)c2=O)cc1	-11	-5	3	i	12	0	1	-6

Source: PubChem BioAssay
